Screens (PubChem BioAssay)
Mtb MbtI inh = MbtI salicylate synthase inhibitors, primary screen, biochemical, fluorescence intensity | hit rate 0.89% among 100,000 | inhibition, %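 (about 17 µg/mL by stock and volumes)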 | purified MbtI enzyme, fluorescence intensity read-out | P9WFX0 | AID 493033, 2011;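 active = above 50% in both replicates, above 80% if mildly self-fluorescent; inactive = the rest, strongly fluorescent compounds included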;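 also: 0% = mean of negative and 100% = mean of positive controls; one replicate is shown; some compounds called inactive have numbers as strong as hits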
PV pol inh = poliovirus RdRp elongation inhibitors, primary screen, biochemical, fluorescence polarization, total intensity; AID 588519, 2011; Genome polyprotein (Poliovirus type 1 (strain Mahoney)), P03300; % elongation, % (compound at 16.7 µg/mL); poliovirus polymerase elongation; stronger effect = lower value; hit rate 0.66% among 150,000; in the data active = % elongation below about 90%; also: some results filed as inactive read as strong as hits
Target sequence (P03300 1749-2209 limits assumed): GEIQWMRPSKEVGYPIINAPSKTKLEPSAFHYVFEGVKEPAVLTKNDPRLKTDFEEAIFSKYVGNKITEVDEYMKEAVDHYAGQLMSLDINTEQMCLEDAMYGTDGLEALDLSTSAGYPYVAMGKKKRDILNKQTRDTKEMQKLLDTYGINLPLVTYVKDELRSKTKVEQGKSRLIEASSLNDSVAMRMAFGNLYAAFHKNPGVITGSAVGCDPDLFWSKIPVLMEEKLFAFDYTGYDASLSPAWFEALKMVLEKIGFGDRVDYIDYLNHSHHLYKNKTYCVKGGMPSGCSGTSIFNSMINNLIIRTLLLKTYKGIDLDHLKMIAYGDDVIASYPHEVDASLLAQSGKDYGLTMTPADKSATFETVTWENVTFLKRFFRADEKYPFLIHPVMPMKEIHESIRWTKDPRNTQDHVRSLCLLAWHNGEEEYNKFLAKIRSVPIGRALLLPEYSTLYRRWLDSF
MenB inh = M. tuberculosis MenB inhibitors, primary screen, biochemical, absorbance. inhibition, %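 (about 12 µg/mL by stock and volumes)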. hit rate 0.43% among 100,000. MenB enzyme assay, absorbance read-out; some hits fall short of the stated cut;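 active = mean of two replicates above 30%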;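 also: 0% = no compound and 100% = wells with inactive enzyme; the first replicate is given; strong numbers were not always called active; inactives centre near -10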
Target sequence (P9WNP5 whole entry, looked up): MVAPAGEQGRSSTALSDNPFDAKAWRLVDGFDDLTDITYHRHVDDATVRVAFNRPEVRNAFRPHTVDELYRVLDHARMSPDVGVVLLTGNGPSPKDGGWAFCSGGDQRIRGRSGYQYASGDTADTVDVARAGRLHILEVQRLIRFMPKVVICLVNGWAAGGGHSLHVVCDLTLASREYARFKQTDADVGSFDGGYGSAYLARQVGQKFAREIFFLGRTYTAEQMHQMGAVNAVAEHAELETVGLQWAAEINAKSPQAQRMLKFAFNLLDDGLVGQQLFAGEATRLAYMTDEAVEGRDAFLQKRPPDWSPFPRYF
PV pol inh intensity = recorded beside PV pol inh, whose call it bears; % elongation; measured here: total intensity read-out; formula for this scale not given here;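 total fluorescence in place of polarization; lower means less elongation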
Numbers without * were called inactive; . = not tested or not shown; & = joins results of further samples.

Value order – Mtb MbtI inh | PV pol inh | PV pol inh intensity | MenB inh
1) CCOC(=O)c1cc2sccc2n1Cc1ccccc1
  22 | 99 | 103 | -58
2) CCCC(C(=O)O)N1C(=O)/C(=C/c2ccc[nH]2)SC1=S (configuration not stated)
  15 | . | . | -214
3) O=C(O)CN=Cc1ccccc1O
  0 | 102 | 98 | .
4) C=CCNc1nc(C(C)C)nc2c1nnn2Cc1ccccc1
  -3 | 102 | 103 | 23
5) O=C(CSc1ncccn1)NC1CCCc2ccccc21 (configuration not stated)
  8 | 105 | 101 | -8
6) O=C(CSC1=NCCS1)Nc1ccc(Cl)cn1
  . | 97 | 104 | -19
7) c1ccc(N(c2ccccc2)c2nc(N3CCCCC3)nc(N3CCOCC3)n2)cc1
  -3 | 100 | 105 | 8
8) c1ccc(Cc2nn3c(Cn4cnc5ccccc54)nnc3s2)cc1
  65* | 95 | 90 | -49
9) Cc1nnc(SCC(=O)c2ccc(O)c(O)c2)s1
  -10 | 101 | 105 | -10
10) CCOc1ccccc1-n1nnnc1SCC(=O)c1cc(Cl)ccc1OC
  0 | 102 | 100 | -59
11) CC1=N/C(=C/c2cccnc2)C(=O)O1
  -2 | 103 | 108 | -4
12) Cc1c(C(=O)O)oc2ccc(S(=O)(=O)N3CCC(C)CC3)cc12
  -10 | 99 | 104 | 1
13) CCCC(=O)Oc1ccccc1NS(=O)(=O)c1ccccc1
  3 | 102 | 102 | 0
14) CC(Oc1ccc(Br)cc1)C(=O)NCc1ccncc1 (configuration not stated)
  -22 | 101 | 102 | -13
15) Cc1[nH][nH]c(=O)c1C1(C(C#N)C#N)C2CC3CC(C2)CC1C3 (configuration not stated)
  . | 99 | 94 | 10
16) CC(C)N(C(=O)c1ccc2ccccc2c1)C(C)C
  -7 | 103 | 103 | -17
17) CCN(CC)S(=O)(=O)c1ccc2nc(COC(=O)c3n[nH]c4ccccc34)[nH]c2c1
  -7 | 107 | 106 | 1
18) CC(=O)N1CCN(S(=O)(=O)c2cccc(C(=O)NC(C)c3ccc(S(N)(=O)=O)cc3)c2)CC1 (configuration not stated)
  -10 | 104 | 112 | -13
19) COc1ccc(CCNC(N)=O)cc1OC
  -7 | 98 | 103 | -10
20) Cc1ccc(C2CC(=O)NC(SCC(=O)OC(C)C)=C2C#N)cc1 (configuration not stated)
  -7 | 101 | 100 | 2
21) O=C(O)c1ccc(-n2cccc2)cc1O
  . | 95 | 103 | 16
22) COc1ccc2[nH]c(C)c(CCN(Cc3cccs3)C(=S)NC3CCCCC3)c2c1
  -2 | 103 | 105 | -40
23) O=C1/C(=C\c2cc3c(cc2Cl)OCO3)N2CCC1CC2
  28 | 101 | 105 | -35
24) O=C(O)/C=C1\OC(=O)c2ccccc21
  -1 | 106 | 99 | -6
25) O=C(c1oc(=O)c2ccccc2c1-c1ccccc1)N1CCCN(Cc2ccc(F)cc2)C1
  0 | 104 | 103 | -13
26) CCN(C(=O)Cn1c(=O)n(CC)c(=O)c2ccccc21)c1ccccc1
  36 | 100 | 102 | 22
27) O=C(COC(=O)C1CC(=O)N(CCc2ccccc2)C1)c1ccc[nH]1 (configuration not stated)
  19 | . | . | -26
28) C=CC1(C)OCO/C1=C\C[N+](C)(C)C (configuration not stated)
  . | 110 | 120 | 7
29) COc1ccc2[nH]cc(C(=O)CSc3nnc(-c4ccoc4)c(-c4ccoc4)n3)c2c1
  75* | 102 | 100 | -62
30) Cc1cc(O)c(C(=O)Nc2ccc(Cl)c(Cl)c2)c(=O)n1C
  5 | 99 | 107 | -29
31) Clc1ccc2oc(-c3ccccc3)cc(=NCc3ccco3)c2c1
  0 | 100 | 100 | 6
32) CC(=O)N/C(=C/c1ccccc1Br)C(=O)NC1CCCCCC1
  -7 | 104 | 106 | -17
33) CCSc1nnc(C2CCCN(C(=O)C3CCC(OC)CC3)C2)n1C (configuration not stated)
  -7 | 102 | 102 | -25
34) CCN1CCN(Cn2nc(-c3c[nH]c4ccccc34)n(CC3CCCO3)c2=S)CC1 (configuration not stated)
  0 | 97 | 102 | -32
35) CC(C)(CO)NC(=O)c1sc2ccccc2c1Cl
  7 | 104 | 107 | 1
36) Brc1ccc2[nH]c3c(c2c1)CCCC3NCc1ccccc1 (configuration not stated)
  . | 105 | 106 | -12
37) Cc1ccc(-n2nc3ccc(NC(=S)NC(=O)c4cc5ccccc5o4)cc3n2)cc1Cl
  -1 | 103 | 105 | 5
38) N#Cc1ccccc1CSc1ncccc1C(=O)O
  4 | 108 | 105 | -16
39) CC(C)c1ccc(C(C)(C)CO)cc1
  . | 107 | 107 | -13
40) Cc1ccccc1NC(=O)C(C)Sc1nnc(-c2ccccc2O)o1 (configuration not stated)
  -11 | 102 | 103 | 5

In the list so far, these have an aryl methoxy group:
Value order – Mtb MbtI inh | PV pol inh | PV pol inh intensity | MenB inh
10) CCOc1ccccc1-n1nnnc1SCC(=O)c1cc(Cl)ccc1OC
  0 | 102 | 100 | -59
19) COc1ccc(CCNC(N)=O)cc1OC
  -7 | 98 | 103 | -10
22) COc1ccc2[nH]c(C)c(CCN(Cc3cccs3)C(=S)NC3CCCCC3)c2c1
  -2 | 103 | 105 | -40
29) COc1ccc2[nH]cc(C(=O)CSc3nnc(-c4ccoc4)c(-c4ccoc4)n3)c2c1
  75* | 102 | 100 | -62

(cont.)
Value order – Mtb MbtI inh | PV pol inh | PV pol inh intensity | MenB inh
41) O=C1OCCC1Sc1nc2scc(C3CC3)c2c(=O)n1C1CCCCC1 (configuration not stated)
  12 | . | . | 4
42) O=C(CS(=O)(=O)c1ccccc1)Nc1ccccn1
  21 | 100 | 103 | 9
43) CCCCN1C(=O)c2[nH]nc(-c3ccccc3O)c2C1c1ccccc1 (configuration not stated)
  4 | 101 | 102 | 0
44) CC(C)(C)c1cc(C(=O)CCN2CCCCC2)cc(C(C)(C)C)c1O
  -10 | 103 | 104 | -6
45) COC(=O)C1=CN(CC(C)C)C=C(C(=O)OC)C1c1cccc(F)c1
  -291 | 103 | 104 | -64
46) CCCn1c2ccccc2c2cnn(CC(=O)NCc3cccnc3)c(=O)c21
  132 | 102 | 101 | 13
47) c1ccc(CN2CCCCC2)cc1
  9 | 103 | 91 | -29
48) Cn1c(CC#N)nc2ccccc21
  -3 | 99 | 108 | .
49) CC1CCC(NC(=O)c2ccccc2C(=O)O)CC1 (configuration not stated)
  -16 | 102 | 101 | -16
50) Oc1c(C(c2ccncc2)N2CCCC2)ccc2cccnc12 (configuration not stated)
  43 | 106 | 107 | -16
51) COc1cccc(-n2c(C)c3c(OC)cccc(=O)c3c2C)c1
  5 | 99 | 122 | -14
52) COc1ccc(Nc2nc(N)nc(CN3CCCCC3)n2)cc1
  1 | 105 | 109 | -13
53) CSc1nsc2nc(=O)c(/C=C3\C=CC(=O)C(O)=C3)c(N)n12
  7 | 113 | 124 | -2
54) CC(C)(C)c1cc(CN2CCOCC2)c(C(=O)O)o1
  -10 | 99 | 102 | -33
55) CCS(=O)(=O)c1ccccc1C(=O)Nc1nc(-c2ccc3c(c2)OCCO3)cs1
  0 | 105 | 109 | -35
56) CCN(CC)P(=O)(Nc1ccccc1Br)c1ccc(N(C)C)cc1NC(=O)c1ccco1 (configuration not stated)
  -13 | 103 | 108 | -29
57) C=CCN(CC=C)C(=O)CSc1nnc(N)s1
  -15 | 104 | 105 | -28
58) CC1=C(C(=O)N2CCCCC2)C2(CCCCC2)OC1=O
  0 | 101 | 103 | -9
59) O=S(=O)(c1ccc2nnn(OCc3cccc(F)c3)c2c1)N1CCCCC1
  8 | 105 | 110 | -28
60) CCCCn1c(N)c(N(CCOC)C(=O)CN2CCCCCC2)c(=O)[nH]c1=O
  -6 | 105 | 98 | -13

Single records, as listed above. Order of values: Mtb MbtI inh, PV pol inh, PV pol inh intensity, MenB inh
C=CC1(C)OCO/C1=C\C[N+](C)(C)C (configuration not stated) across the screens: ., 110, 120, 7
CCCCn1c(N)c(N(CCOC)C(=O)CN2CCCCCC2)c(=O)[nH]c1=O across the screens: -6, 105, 98, -13
CSc1nsc2nc(=O)c(/C=C3\C=CC(=O)C(O)=C3)c(N)n12 across the screens: 7, 113, 124, -2
CCCn1c2ccccc2c2cnn(CC(=O)NCc3cccnc3)c(=O)c21 across the screens: 132, 102, 101, 13

Continued:
Value order – Mtb MbtI inh | PV pol inh | PV pol inh intensity | MenB inh
61) C/C(=N\N)c1cccs1
  31 | 101 | 98 | 11
62) COc1cccc2c1OC1=C(C(=O)CCC1)C2C1=C(O)CCCC1=O (configuration not stated)
  21 | 99 | 103 | 4
63) CCc1cc(=O)oc2c(C)c(OCC(N)=O)ccc12
  14 | 102 | 103 | -7
64) CCN1CCN(C(=O)c2cccc(Nc3nc4ccccc4n4nnnc34)c2)CC1
  56 | 104 | 101 | -9
65) COc1cc2nc(CNc3ccc(C)cc3)[nH]c(=O)c2cc1OC
  -3 | 108 | 108 | -16
66) CN1/C(=C2/S/C(=N\c3ncn[nH]3)N(Cc3ccccc3)C2=O)Sc2ccccc21
  1 | 102 | 103 | -23
67) CC(C)(C)C(=O)NC1CCN(S(=O)(=O)c2ccc(C(F)(F)F)cc2)CC1
  -5 | 101 | 103 | -36
68) COc1ccc(-n2nc(C(=O)Nc3cc(C)on3)c3c4ccccc4n(C)c3c2=O)cc1Cl
  39 | 102 | 105 | -7
69) CC(=O)N1c2ccccc2C(=O)C1NC(N)=S (configuration not stated)
  7 | 102 | 105 | 7
70) O=C(NC1CCCCCC1)C1CC1
  . | 99 | 106 | -19
71) CCC(=O)Nc1cccc(NC(C)=O)c1
  -8 | 101 | 103 | 1
72) N#C/C(=C\c1ccc(O)c(O)c1)C(N)=S
  71* | 104&96 | 116&128 | -6
73) CN(C)/C=C(\C=[N+](C)C)c1[nH]ncc1N
  . | 105 | 110 | 0
74) COc1ccc(CN(CCCN)CCC2(c3ccccc3)CC(C)N(C)CC2C)cc1OC (configuration not stated)
  . | 93 | 105 | -18
75) c1ccc(CN2CC(c3nn[nH]n3)CN(Cc3ccccc3)C2)cc1
  -16 | 106 | 109 | 5
76) O=C(CSc1nc2c(c(C(F)(F)F)n1)CCc1ccccc1-2)N1CCCC1
  -5 | 104 | 105 | 8
77) c1ccc2c(c1)nnn2CNCn1nnc2ccccc21
  1 | 100 | 103 | -11
78) COc1ccc(OC)c(NS(C)(=O)=O)c1
  -2 | 104 | 104 | 8
79) CCC1CCCCN1S(=O)(=O)c1ccc(S(=O)(=O)n2cnc3cc(C)c(C)cc32)cc1 (configuration not stated)
  3 | 99 | 103 | -51
80) O=C(C1CCN(S(=O)(=O)c2cnc[nH]2)CC1)N1CCN(Cc2ccc3c(c2)OCO3)CC1
  -1 | 99 | 104 | -2
81) O=c1[nH]c(=O)n(-c2ccccc2)c(O)c1C=NCCO
  20 | 99 | 101 | -5
82) N/C(=N\OC(=O)CC1CCCCC1)c1ccccc1
  -23 | 100 | 102 | -26
83) Cn1c(SCC(=O)NCc2ccco2)nnc1-c1c[nH]c2ccccc12
  7 | 102 | 109 | -7
84) CCCNC(=O)NNc1cccc(C)c1
  5 | 98 | 104 | -5
85) CC(C)Cc1ccc(/C=C/C(=O)N2CCCC2)cc1
  . | 100 | 101 | 3
86) Cn1nc(C(=O)Nc2cccc3ccccc23)ccc1=O
  -10 | 106 | 107 | -37
87) Cc1ccc(-n2nc(C)c(C(=O)N(Cc3ccccc3)C(C)C)c2-n2cccc2)cc1
  -12 | 101 | 101 | -42
88) CC(C)(C)NC(=O)/C=C/c1c(Cl)nc2sccn12
  16 | 98 | 105 | 7
89) CCc1cc(C)cc(OCCn2cc(C=C3C(=O)NC(=O)NC3=O)c3ccccc32)c1
  6 | 103 | 99 | -14
90) COC(=O)c1ccc(COC(=O)c2cc(C)oc2C)cc1
  9 | 101 | 107 | -30
91) NC(=O)C1CCN(CC(=O)Nc2ccccc2)CC1
  -18 | 103 | 105 | -13
92) COC(=O)C(NC(=O)c1cn(-c2ccccc2)nc1-c1ccc(Cl)cc1)C(C)C (configuration not stated)
  -1 | 100 | 102 | .
93) CCC(C)NC(=O)c1cc(-c2ccc(F)cc2)no1 (configuration not stated)
  3 | 102 | 102 | 4
94) CN(C)CC1(c2ccccc2)CCCC1
  -2 | 104 | 104 | -34
95) COc1ccc(CNC(=O)C(NS(=O)(=O)c2ccc3nc(C)sc3c2)C(C)C)cc1 (configuration not stated)
  -2 | 101 | 104 | -5
96) CCCNc1nc(NCC)nc(OC)n1
  -8 | 105 | 102 | -56
97) CCOc1ccccc1-n1nnnc1SCC(=O)c1ccc(CNC(C)=O)o1
  15 | 103 | 106 | 10
98) COc1cc(OC)c(NC(C)C(=O)N(C)C2CCCCC2)cc1Cl (configuration not stated)
  -2 | 101 | 102 | 0
99) CCOC(=O)C1Cc2ccccc2CN1 (configuration not stated)
  3 | 102 | 103 | -4
100) CC(C)C/C(O)=C/c1nc2cc(Cl)ccc2oc1=O
  22 | 101 | 103 | 85*
101) CC(=O)N(c1ccccc1)c1nc(COC(=O)c2cc(C)oc2C)cs1
  -1 | 100 | 106 | -15
102) CC1CCCCC1NC(=O)C1CCN(Cc2cnn(-c3ccccc3)c2-n2cccc2)CC1 (configuration not stated)
  6 | 102 | 103 | 11
103) COC(=O)Cn1c(O)c(N=NC(=O)C2C(=O)NCC2c2ccccc2)c2ccccc21 (configuration not stated)
  9 | 101 | 104 | -15
104) Cc1ccc2c(c1)-c1onc(C(=O)N(CC(C)C)CC(C)C)c1CO2
  6 | 102 | 105 | 7
